High-throughput results as filed in PubChem BioAssay.
H5N1 CPE: MDCK cell protection from H5N1 avian flu; cytopathic effect, luminescence, 72 h; active compounds read high; no value below 0 was filed and about half of the inactive calls have no number; reference of the scale not given here; inhibition, % at 50 µM; 96,000 compounds, 0.07% hits; in the data active means inhibition above about 25%
Starred values were filed as active, the others as inactive; i = inactive. Not all compounds are listed; count on the stated rates, not on these rows.

A first look:
SMILES	H5N1 CPE
COc1cccc(NC(=O)CC2SC(=Nc3ccccc3)NC2=O)c1 (stereo not drawn)	i
O=C(O)c1ccc(-n2c(-c3ccccc3)n[nH]c2=S)cc1	i
Cc1cccc(C)c1N(CC(=O)Nc1cccc(N(C)S(C)(=O)=O)c1)S(C)(=O)=O	0.9
CCCC(c1nnnn1C1CCCC1)N1CCN(c2ccccc2F)CC1 (stereo not drawn)	0.8
COc1ccc(C2(C(=O)NCCCN(C)C)CCOCC2)cc1	1.0

Results, previewed entries included:
SMILES	H5N1 CPE
COc1cccc(NC(=O)CC2SC(=Nc3ccccc3)NC2=O)c1 (stereo not drawn)	i
O=C(O)c1ccc(-n2c(-c3ccccc3)n[nH]c2=S)cc1	i
Cc1cccc(C)c1N(CC(=O)Nc1cccc(N(C)S(C)(=O)=O)c1)S(C)(=O)=O	0.9
CCCC(c1nnnn1C1CCCC1)N1CCN(c2ccccc2F)CC1 (stereo not drawn)	0.8
COc1ccc(C2(C(=O)NCCCN(C)C)CCOCC2)cc1	1.0
Cc1nc(NC(=O)c2ccc(Cl)cc2)sc1-c1csc(Nc2cccc(F)c2)n1	i
Cc1ccc(NC(=O)C2CCCN(S(=O)(=O)c3c(C)noc3C)C2)nc1 (stereo not drawn)	i
O=C(CSc1ccc(Cl)cc1)N1CCN(c2c(Cl)cccc2[N+](=O)[O-])CC1	2.7
Cn1cc(CC(=O)N2CCN(c3ccccc3F)CC2)c2ccccc21	0.6
COc1cccc(S(=O)(=O)N2CCOCC2)c1	i
Cc1sc2ncnc(SCC(=O)NNC(=O)COc3cccc4ccccc34)c2c1C	i
CC(C)C(=O)Nc1nnc(SCC(=O)NCc2cccs2)s1	i
CCOC(=O)c1cc(NC(=O)c2cccnc2)cc(C(=O)OCC)c1	i
COc1ccc(C(=O)NCC(C)CN(C)C)cc1 (stereo not drawn)	0.2
CCn1c(C)nc2cc(S(=O)(=O)N3CCCC3)ccc21	0.3
O=C(CN(c1ccccc1F)S(=O)(=O)c1ccccc1)N1CCCCCC1	1.4
CCOC(=O)C(=CNc1cc(C)ccc1C)C(=O)OCC	i
O=C(c1cn(-c2ccccc2)nc1-c1cccs1)N1CCN(c2ccccn2)CC1	i
O=C1c2ccccc2COc2ccc(O)cc21	0.1
Cc1cc2c(c(N3CCOCC3)n1)C(=O)OC2	0.1
Cc1ccc(-c2nc(-c3cccnc3)no2)cc1	i
O=C(Nc1cccc(NC(=O)N2CCN(c3ccccc3)CC2)c1)N1CCN(c2ccccc2)CC1	i
CCc1ccc(C(=O)CSc2ncn[nH]2)cc1	i
Cc1ccc(-c2csc(NC(=O)c3ccc(-c4ccccc4)cc3)n2)o1	i
CCOC(=O)N1CCC(C(=O)Nc2ccc(OCC)cc2)CC1	0.3
SMILES	H5N1 CPE
O=Cc1ccc2noc(-c3ccc(Cl)cc3)c2c1	0.2
CC1CCCC(C)N1CCCNC(=O)Cn1cc2c(n1)CCCC2 (stereo not drawn)	1.4
COc1ccc2[nH]cc(C(=O)N3CCCCC3)c(=O)c2c1	1.5
CSc1n[nH]c(NCc2ccccc2)n1	0.5
Cc1nc2ccccn2c1C(=O)NCCCN1CCOCC1	0.6
COc1ccc(NC(=O)CN(C)S(=O)(=O)c2ccc3c(c2)OCCO3)c2ncccc12	i
Nc1cc(S(=O)(=O)C(F)(F)F)ccc1C(=O)O	i
COc1ccc(NC(=O)CN(C)S(=O)(=O)c2ccc(Cl)cc2)cc1Cl	i
Cn1c(=O)c(NC(=O)c2ccccc2)c2n(c1=S)CCCCC2	2.2
CCCc1nc(N)c(C#N)c(-c2cccnc2)c1CC	1.5
Nc1nc(-c2ccc3c(c2)NC(=O)CO3)cs1	i
O=C(Nc1ccc(S(=O)(=O)N2CCCCC2)cc1)c1ccncc1	1.5
COc1cc(NC(=O)CSc2ncnc3c2cnn3Cc2ccccc2)cc(OC)c1	i
C/C=C/CSc1nc2c(c(=O)[nH]c(=O)n2C)n1C(C)C	0.9
Cc1cc(C)c(S(=O)(=O)NCCn2ccc3ccccc32)c(C)c1	i
Cc1cc(NC(=O)COC(=O)c2cccc(S(=O)(=O)N3CCOCC3)c2)no1	0.6
CCc1ccccc1NC(=O)c1nnn(CC(=O)Nc2cccc(C)c2C)c1N	0.2
COc1ccc(C(=O)N2CCCC(C(=O)N3CCCCCC3)C2)cc1 (stereo not drawn)	i
Cc1ccc(N2C(=S)N=C(Nc3ccccc3C)C23CCOC(C)(C)C3)cc1 (stereo not drawn)	i
CSc1nnc2n(Cc3ccccc3)c(=O)c3c4c(sc3n12)COC(C(C)C)C4 (stereo not drawn)	0.9
Cc1ccc2cccc(S(=O)(=O)Nc3ccc4c(c3)OCO4)c2n1	1.4
CC1(C)CC(=O)C2=C(C1)OC(=O)C2(NC(=O)c1cccs1)C(F)(F)F (stereo not drawn)	i
CN(CC(=O)Nc1ccc(C#N)cc1)Cc1ccc(Cl)cc1	0.5
CCCC(=O)c1c[nH]c(C(=O)NCCCN2CCOCC2)c1	1.1
Cc1cc(C)c2cc(CN(CCO)Cc3nnnn3Cc3ccc(F)cc3)c(=O)[nH]c2c1	1.4

Some of these compounds in order of molecular weight, highest first.
SMILES	H5N1 CPE
Cc1cc(NC(=O)COC(=O)c2cccc(S(=O)(=O)N3CCOCC3)c2)no1	0.6
O=C(Nc1ccc(S(=O)(=O)N2CCCCC2)cc1)c1ccncc1	1.5
Nc1nc(-c2ccc3c(c2)NC(=O)CO3)cs1	i

(listing goes on)
SMILES	H5N1 CPE
Cn1c(=O)c2c(nc(SCC(=O)NCc3ccco3)n2C)n(C)c1=O	17
O=C(O)c1cccc(NS(=O)(=O)c2ccc3nnn(O)c3c2)c1	i
CC(C)(C)c1ccc(-c2nc(C#N)c(NCc3ccncc3)o2)cc1	i
Cc1ccccc1NC(=O)c1ccccc1O	0.3
CCCCc1ccc(NC(=O)N[C@H](C(=O)O)C(C)C)cc1	i
O=C1CC(SC(=NCc2ccc3c(c2)OCO3)Nc2ccccc2)C(=O)N1c1ccccc1 (stereo not drawn)	i
Cn1c(=O)n(CC(=O)NCc2cccnc2)c2ccccc21	1.3
COc1ccc(C(=O)NC(=O)N2CCCCC2)cc1	0.2
COC(=O)Cn1c(C)nc(=O)c(-c2ccccc2)c1C	0.5
Cc1cc(C)c(C(=O)Nc2ccc(S(=O)(=O)Nc3onc(C)c3C)cc2)c(C)c1	1.8
Cc1ccccc1Nc1cc(=O)oc2ccccc12	i
COc1ccc2nc(C)c3c(c2c1)OC(C)C3 (stereo not drawn)	0.8
CCOc1ccc(C2C(C(=O)OC)=C(C)N=C3SCCC(=O)N32)cc1OCC (stereo not drawn)	i
C=CCn1c(SCC(=O)NCCC2=CCCCC2)nc2ccc(Cl)cc2c1=O	2.5
COCCCn1c(N)c(C(=O)NCCC(C)C)c2nc3ccccc3nc21	i
COc1ccc(-c2c(C)n([O-])c3c([n+]2=O)CCCC3)c(OC)c1	1.1
COC(=O)C1=C(CSc2nncn2C)NC(=O)NC1c1ccc(F)cc1 (stereo not drawn)	i
CCCOC(=O)Nc1ccc(S(=O)(=O)Nn2cnnc2)cc1	1.1
O=C(O)c1cccc(COCC(F)(F)C(F)F)c1	i
Cc1cc2ccccc2n1CCNC(=O)Cc1cccc2ccccc12	1.3
N#CCCn1c(SCC(=O)N2CCN(S(=O)(=O)c3ccccc3)CC2)nc2ccccc21	i
CCCCCCC(=O)Nc1nc(C)c(-c2csc(Nc3cc(OC)ccc3OC)n2)s1	i
COC(=O)c1ccsc1NC(=O)CSc1nnnn1-c1ccccc1SC	0.6
CC(C)CCNC(=O)CN(C(=O)Cn1nnc(-c2ccccc2F)n1)c1cccc2c1CCCC2	1.6
O=C1c2ccccc2S(=O)(=O)N1CC1CC(c2ccccc2)=NO1 (stereo not drawn)	0.4
SMILES	H5N1 CPE
COc1ccc2oc(=O)c(C(=O)N3CCN(c4ccccc4)CC3)cc2c1	0.3
C=CCn1c(=O)/c(=C/c2cc(OC)c(OC)c(OC)c2)s/c1=C(/C#N)c1nc2ccccc2n1C	i
COc1ccc(-n2c(SCC#N)nnc2-c2ccc(NS(=O)(=O)c3ccc(C)cc3)cc2)cc1	0.2
O=C(NCc1ccc2c(c1)OCO2)C1CCN(Cc2cnn(-c3ccccc3)c2-n2cccc2)CC1	1.3
Cc1ccc(-c2nnc(N(C)C(=O)c3cccnc3)s2)cc1	1.2
O=C(CSc1nnnn1C1CCCC1)N1CCN(C(=O)c2ccco2)CC1	0.0
O=S(=O)(NCC(c1cccnc1)N1CCN(c2ccccc2F)CC1)c1cccs1 (stereo not drawn)	0.9
CCOC(=O)Nc1cc(Br)c2c(c1)OCCO2	0.2
COc1ccc2cc(CN(CCCN3CCOCC3)Cc3nnnn3C3CCCCC3)c(=O)[nH]c2c1	5.8
Cc1cc(C)c(CSc2ncc(-c3ccc([N+](=O)[O-])cc3)[nH]2)c(C)c1	2.6
COCC(C)n1c(C)cc(C(=O)CSc2nnc(N)s2)c1C (stereo not drawn)	0.2
CCCOC(=O)CSC1=C(C#N)C(c2ccccc2Cl)CC(=O)N1 (stereo not drawn)	0.5
CC(C)N1C2OC(C3OC4C(O3)N(C(C)C)S(=O)(=O)N4C(C)C)OC2N(C(C)C)S1(=O)=O (stereo not drawn)	1.4
Cc1ccccc1OCC1CN(CN2CCOCC2)C(=O)O1 (stereo not drawn)	0.2
O=C(CSc1nnc(-c2ccc(NS(=O)(=O)c3ccccc3)cc2)o1)NCC1CCCO1 (stereo not drawn)	0.1
O=C(COC(=O)c1cc(S(=O)(=O)N2CCOCC2)cs1)c1ccccc1	i
COC(=O)c1cn(C)c2ccc(S(=O)(=O)N3CCCCC3)cc2c1=O	i
O=C(Cc1ncc(C(F)(F)F)cc1Cl)N1CCN(c2cccc(Cl)c2)CC1	0.9
O=C(CCC1CCCC1)N1CCC(N2CCN(c3ccccc3)CC2)CC1	i
CCn1c(CC(=O)Nc2ccc(C)c(Cl)c2)nnc1SCc1ccc(Cl)c(Cl)c1	i
Cc1nn(Cc2ccccc2)c(C)c1NC(=O)CCC(=O)O	i
Clc1ccc(-c2cn3cccnc3n2)cc1	i
CCCn1c(C)cc(C(=O)COC(=O)c2ccc(Cl)c(S(=O)(=O)N3CCCC3)c2)c1C	0.7
Cc1cccc2cc(C(c3nnnn3C(C)(C)C)N(Cc3ccco3)CC3CCCO3)c(=O)[nH]c12 (stereo not drawn)	0.8
O=C1CC(Sc2nnc(-c3ccccc3)o2)C(=O)N1c1ccccc1 (stereo not drawn)	i
SMILES	H5N1 CPE
CCc1nnc(NC(=O)CN2C(=O)c3ccccc3S2(=O)=O)s1	i
C(=C\c1ccccc1)/CSc1nnc(-c2cccnc2)o1	0.2
CC(O)(CS(=O)(=O)c1cccc(C(F)(F)F)c1)C(=O)Nc1ccc(C(F)(F)F)cc1 (stereo not drawn)	i
CCOC(=O)C1CCN(Cc2cn[nH]c2-c2ccccc2)CC1	i
O=C(O)CSc1nnc(-c2ccncc2)n1C1CCCCC1	1.7
CNC(=O)CSc1nc2nc(C)cc(C)n2n1	i
CCOCCCN1CC(C(=O)NCCc2ccccc2)CC1=O (stereo not drawn)	i
COc1ccc(NC(=O)CC(C)(C)C)c([N+](=O)[O-])c1	i
S=C1NCCOCCOCCOCCOCCN1	0.2
COc1cccc(-c2nnc3sc(-c4ccc(C)cc4)nn23)c1	5.3
COc1ccc2[nH]c3c(N4CCC(O)(c5cccc(C(F)(F)F)c5)CC4)ncnc3c2c1	i
CCOC(=O)C1CCCN(C(=O)C2CCN(S(=O)(=O)c3cnc[nH]3)CC2)C1 (stereo not drawn)	i
COc1cc(C)c(Cl)cc1S(=O)(=O)n1ccnc1C	0.4
Cc1ccc(OCCCOc2cccc3cccnc23)cc1C	1.8
CCOc1ccc(CCNC(=O)c2cc3sccc3n2C)cc1OCC	i
Cc1nc2ccccc2nc1CSc1nnc(N)s1	i
O=C(CCC(=O)N(c1ccccc1)C(C(=O)NC1CCCC1)c1ccncc1)Nc1cccnc1 (stereo not drawn)	1.8
Clc1ccc(Sc2cnc3ccccc3n2)cc1	12
CCCc1ncc(C(O)c2cccc(OC)c2OC)n1C (stereo not drawn)	0.4
CCOC(=O)N/N=C\c1ccc([N+](=O)[O-])o1	2.9
c1ccc(OCCOc2ccccc2-c2nnco2)cc1	i
COc1ccc(C(=O)N2CCN(Cc3ccccc3C)CC2)cc1OC	0.1
CC(C)Sc1nc(C(F)(F)F)cc(=O)n1-c1ccccc1	0.6
COn1c(SC(C)C)nc2ccccc2c1=O	0.8
O=C(O)CN(Cc1ccco1)S(=O)(=O)c1ccc(F)cc1	i

Grouped by structure, those above containing a tert-butyl group (3)
SMILES	H5N1 CPE
CC(C)(C)c1ccc(-c2nc(C#N)c(NCc3ccncc3)o2)cc1	i
Cc1cccc2cc(C(c3nnnn3C(C)(C)C)N(Cc3ccco3)CC3CCCO3)c(=O)[nH]c12 (stereo not drawn)	0.8
COc1ccc(NC(=O)CC(C)(C)C)c([N+](=O)[O-])c1	i

Carrying on:
SMILES	H5N1 CPE
Cn1nnc2cc(C(=O)N3CCSCC3)ccc21	i
Cc1nc2sc(C(c3ccc(Cl)cc3)N3CCN(C(=O)c4ccco4)CC3)c(O)n2n1 (stereo not drawn)	0.9
Cn1c(=O)c2c(nc(SCCN3CCCCC3)n2Cc2ccc(Cl)cc2)n(C)c1=O	i
C=CCNC(=O)c1ccc(-c2nc(-c3ccccc3)cs2)cc1	i
CC(C)C(NC(=O)CN1C(=O)c2ccccc2S1(=O)=O)C(C)C	1.0
c1ccc(-c2nc(NC3CC3)nc(-n3ccnc3)n2)cc1	i
CC1Cc2ccccc2N1C(=O)CN1CCC(n2nnc3cc(C(F)(F)F)ccc32)CC1 (stereo not drawn)	i
Cc1csc(NC(=O)CSc2nncn2C)n1	1.3
CCCCn1c(=NC(=O)c2cccnc2)c(C#N)cc2c(=O)n3cccc(C)c3nc21	1.7
Cc1ccc2c(CN3CCN(CCO)CC3)cc(=O)oc2c1	i
